Compound activity deposited in PubChem by National Center for Advancing Translational Sciences (NCATS).
Apoferritin bind = candidate novel general anesthetic via apoferritin binding; P02791; apoferritin/1-aminoanthracene competitive binding, fluorescence; Potency, µM (highest dose often 77.5 µM), for inactives: at the highest dose activity change, negative = displacement, actives largely listed as inhibitors; 0.074% of 350,000 active; active = well fitted inhibition curve with a large enough effect; inconclusive = small, poorly fitted or top-dose-only effect; inactive = no such curve, though single readings can be large or run the other way; note: potency is the fitted concentration of half-maximal effect; % is set by controls: 0 for no effect and ±100 for the full control effect; nearly all actives have a fitted effect of over 20% in size
Target sequence (P02791 2-175 limits assumed): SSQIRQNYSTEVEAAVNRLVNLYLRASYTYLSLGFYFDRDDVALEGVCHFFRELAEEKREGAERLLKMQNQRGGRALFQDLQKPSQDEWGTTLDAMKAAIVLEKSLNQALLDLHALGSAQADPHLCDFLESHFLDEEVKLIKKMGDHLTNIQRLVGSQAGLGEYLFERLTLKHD
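Apoferritin-based anesthetic binding model; compound displacement of fluorescent 1-AMA measured as endpoint fluorescence after 10 minutes at room temperature, scaled to free-ligand and complex controls.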
TRHR agonist = TRH receptor (human) agonism | P34981 | TRHR cells, calcium flux fluo-8, FDSS agonist mode | activation, % at 2 µM | 0.18% of 360,000 active | AID 493084; note: 0% is about no effect
Target sequence (P34981 whole entry, looked up): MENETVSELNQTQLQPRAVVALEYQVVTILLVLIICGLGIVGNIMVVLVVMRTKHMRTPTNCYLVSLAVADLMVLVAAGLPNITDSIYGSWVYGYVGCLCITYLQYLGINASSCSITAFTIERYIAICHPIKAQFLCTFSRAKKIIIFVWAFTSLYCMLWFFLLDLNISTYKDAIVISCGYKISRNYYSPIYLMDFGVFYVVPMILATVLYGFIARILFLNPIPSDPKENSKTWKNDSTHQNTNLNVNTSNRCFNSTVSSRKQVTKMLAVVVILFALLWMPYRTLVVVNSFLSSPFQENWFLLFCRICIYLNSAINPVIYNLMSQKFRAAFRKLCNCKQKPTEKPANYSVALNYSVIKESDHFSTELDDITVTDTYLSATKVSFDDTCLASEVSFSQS
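Steps: seed TRHR cells overnight; add fluo-8 no-wash Ca dye, RT 30 min–1.5 h; record 10 s baseline; pin-transfer compounds; monitor fluorescence 1 cycle/s for the agonist window. Calcium increases flag candidate agonists.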
TRHR enhancer = allosterically enhances the human TRH receptor; P34981; TRHR cells, fluo-8 calcium fluorescence, EC20 TRH enhancement; enhancement, % at 2 µM; 0.66% of 360,000 active; in the data active = enhancement above about 30%; note: 0% is about no effect
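TRHR-expressing cells loaded with fluo-8 calcium dye were read kinetically (ex 480/em 530) during compound addition, then stimulated with an EC20 of TRH (10 nM final). Enhancement of the Gq-mediated intracellular calcium response was scored.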
D2 PAM = positive allosteric modulators of human D2 dopamine receptor; HEK293 T-REx D2, calcium flux, EC20 dopamine potentiation; potentiation, % at 10 µM; 0.34% of 340,000 active;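 active = potentiation over 3 SD above the plate norm, cut at about 30% in these data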; note: 0% is about no effect
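Primary screen. Calcium kinetics in induced HEK293 T-REx D2 cells: compound pre-addition 180 s, EC20 dopamine, 180 s more.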
D1 antagonist = blocks dopamine activation of the human D1 receptor | HEK293 TREx D1 cells, calcium flux, dopamine EC80; stronger effect = lower value | P21728 | activity change, negative = inhibition, % at 10 µM | 3.2% of 360,000 active; in the data active = activity change below about -30%; note: % is set by controls: 0 for no effect and ±100 for the full control effect
Target sequence (P21728 whole entry, looked up): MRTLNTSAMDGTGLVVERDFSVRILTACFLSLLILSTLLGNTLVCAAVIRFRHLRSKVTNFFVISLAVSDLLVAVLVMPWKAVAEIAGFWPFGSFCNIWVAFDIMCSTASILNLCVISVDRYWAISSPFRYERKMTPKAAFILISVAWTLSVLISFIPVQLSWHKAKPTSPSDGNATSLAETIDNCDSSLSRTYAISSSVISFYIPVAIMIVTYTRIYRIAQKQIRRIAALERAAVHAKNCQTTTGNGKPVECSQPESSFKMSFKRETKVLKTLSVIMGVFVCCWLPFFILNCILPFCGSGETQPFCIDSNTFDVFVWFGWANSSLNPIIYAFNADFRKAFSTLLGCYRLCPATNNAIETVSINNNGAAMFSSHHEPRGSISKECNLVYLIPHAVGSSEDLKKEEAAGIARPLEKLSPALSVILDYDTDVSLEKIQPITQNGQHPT
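Compound effects on dopamine-evoked calcium signalling were measured in tetracycline-induced HEK293 Trex D1 cells. Dopamine at EC80 followed a 180 s compound pre-read, and fluorescence was tracked kinetically for 180 s more.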
D1 PAM = potentiators of human D1 dopamine receptor; HEK293 TREx D1 cells, calcium flux, dopamine EC20 potentiation; potentiation, % at 10 µM; 0.036% of 360,000 active; P21728; in the data active = potentiation above about 30%; note: 0% is about no effect
D1 ag = activates the human D1 dopamine receptor; P21728; HEK293 T-REx D1 cells, calcium flux, agonist mode; activation, % at 2 µM; 1% of 360,000 active; AID 504660; note: 0% is about no effect
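Inducible HEK293 T-REx D1 cells, force-coupled to calcium signalling, were plated at 4000 cells/well with tetracycline and held overnight at 30 C. After no-wash calcium dye loading, compound-evoked calcium rise over 180 s flagged agonists.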
* hit, by the source's call; u = inconclusive; x = not tested or not shown; & = joins results of further samples; [ ] = another dose, or the depositor's remark. Cut-off read from the data, not from the text of the source, unless noted: active = activation above about 30%; inactive = the rest.

SMILES | Apoferritin bind | TRHR agonist | TRHR enhancer | D2 PAM | D1 antagonist | D1 PAM | D1 ag
O=C(NC1CC(=O)N(c2ccc(F)cc2)C1)N1CCN(C(=O)c2ccco2)CC1 (stereo unspecified) | x | 0.4 | 1 | -3 | -4 | -4 | 20
O=C(CSc1ncnc2c1nnn2Cc1ccccc1F)NCC1CCCO1 (stereo unspecified) | 5% | -0.2 | 2 | 9 | 7 | -2 | 5
Cc1cc(N/N=C/c2ccc(F)cc2)nc(-n2nc(C)cc2C)n1 | -23% | -0.1 | 6 | -3 | 3 | 0 | 6
COc1cccc(N/C(SCc2cccc([N+](=O)[O-])c2)=C(/C#N)C(N)=O)c1 | -21% | -1.6 | -10 | 8 | 6 | 3 | 0
CC(=O)c1sc(NC(=O)CCCOc2ccccc2C)nc1C | -2% | -3.0 | -3 | 1 | 3 | -4 | 1
COc1cccc(CNC(=O)C2CCCN(c3nc4ccccc4o3)C2)c1 (stereo unspecified) | -15% | -0.6 | 9 | 8 | -4 | 3 | 1
Cn1cnnc1SCC(=O)Nc1cccc(S(=O)(=O)N2CCOCC2)c1 | -1% | 0.6 | 8 | 22 | -1 | -1 | 0
COc1cccc(-c2cc(C(=O)Nc3cccnc3Cl)no2)c1 | -8%&7% | 1.0&1.7 | -1&13 | -2&-2 | 1&-2 | -9&0 | 2&0
CCOc1cc(O)c(-c2[nH]ncc2-c2nc(C)cs2)cc1CC | -13% | 0.4 | 1 | 25 | -12 | -3 | 23
COc1ccccc1C(CCN(Cc1ccccc1)C(C)=O)c1ccco1 (stereo unspecified) | -9% | 1.1 | -2 | -10 | 26 | -4 | 1
CCc1ccc(S(=O)(=O)Nc2ccc(-c3nc4cccnc4s3)cc2)s1 | 42%[activator] | -0.1 | -2 | x | 0 | -1 | 2
COc1ccc(N/N=C(/C(N)=O)C2=NC(C)(C)Cc3ccccc32)cc1 | -18% | -0.5 | 6 | 9 | 4 | -2 | 1
O=C(c1ccc(Cl)cc1)c1cn(Cc2ccccc2)c2cc3c(cc2c1=O)OCCO3 | -3% | 0.0 | 26 | 16 | -7 | -4 | 14
CC(C)CCNC(=O)CSc1nc2ccccc2nc1Cc1ccccc1 | 58%[activator] | 0.3 | -6 | -5 | -9 | -2 | 8
CSc1ccc(C(=O)C2CCCN(C(=O)c3ccsc3)C2)cc1 (stereo unspecified) | u | -0.3 | 5 | -1 | 3 | 0 | 4
Cc1ccc(C)c(NC(=O)CSc2ncc3c(n2)-c2ccc(Cl)cc2N(C)S3(=O)=O)c1 | 0% | -0.3 | -1 | 9 | -5 | 2 | 4
COc1ccc2cc(C(c3nnnn3C3CCCC3)N3CCc4ccccc4C3)c(=O)[nH]c2c1 (stereo unspecified) | u | 0.3 | -7 | 3 | 4 | -4 | 5
Cc1cccc(NC(=O)c2cc3c(=O)n(Cc4cccnc4)ccc3nc2C)c1 | -18% | -0.2 | 9 | -4 | -18 | -5 | 0
COc1ccc(NC(=O)CSCc2cc(=O)n3c(C)csc3n2)cc1 | -7% | -0.3 | -5 | 19 | -4 | 2 | 2
COc1ccc(-c2nnc3ccc(SCC(=O)Nc4cc(C)on4)nn23)cc1OC | -5% | 0.1 | 0 | -2 | -15 | -1 | 4
COc1ccc(-c2cn3nc(SCC(=O)NC4CCCCC4)ccc3n2)cc1 | -8% | 0.1 | 7 | 4 | -1 | -2 | 1
O=S(=O)(NCC(c1cccnc1)N1CCN(Cc2ccccc2)CC1)c1ccccc1 (stereo unspecified) | 0% | -0.6 | -8 | -16 | 3 | -1 | 0
CSc1ccc(CNC(=O)c2sc3ncnc(N(C)C4CCCCC4)c3c2C)cc1 | -10% | 0.4 | 1 | 0 | -15 | -3 | 2
COC(=O)CSc1nc(COc2ccccc2)nc2ccccc12 | u | 0.9 | -4 | -1 | -23 | -7 | 1
CCS(=O)(=O)Nc1ccc(-c2cn3c(C)csc3n2)cc1 | -15% | -0.2 | 5 | x | -1 | -2 | 0

Reprinted from the part before: seven compounds; new compounds follow.
SMILES | Apoferritin bind | TRHR agonist | TRHR enhancer | D2 PAM | D1 antagonist | D1 PAM | D1 ag
COc1ccc(NC(=O)CSCc2cc(=O)n3c(C)csc3n2)cc1 | -7% | -0.3 | -5 | 19 | -4 | 2 | 2
COc1ccc(-c2nnc3ccc(SCC(=O)Nc4cc(C)on4)nn23)cc1OC | -5% | 0.1 | 0 | -2 | -15 | -1 | 4
COc1ccc(-c2cn3nc(SCC(=O)NC4CCCCC4)ccc3n2)cc1 | -8% | 0.1 | 7 | 4 | -1 | -2 | 1
O=S(=O)(NCC(c1cccnc1)N1CCN(Cc2ccccc2)CC1)c1ccccc1 (stereo unspecified) | 0% | -0.6 | -8 | -16 | 3 | -1 | 0
CSc1ccc(CNC(=O)c2sc3ncnc(N(C)C4CCCCC4)c3c2C)cc1 | -10% | 0.4 | 1 | 0 | -15 | -3 | 2
COC(=O)CSc1nc(COc2ccccc2)nc2ccccc12 | u | 0.9 | -4 | -1 | -23 | -7 | 1
CCS(=O)(=O)Nc1ccc(-c2cn3c(C)csc3n2)cc1 | -15% | -0.2 | 5 | x | -1 | -2 | 0
Cc1ccc(-c2cc(C(=O)O)c3cc(Br)ccc3n2)s1 | 60%&46%[activator] | -1.0&-1.0 | -7&10 | -10&-13 | 0&-4 | -6&-4 | 2&1
CCc1nc2c(n1O)CCc1nonc1-2 | -5% | 1.7 | 14 | x | 0 | 0 | 1
O=C(Cn1ccn(-c2ccc(F)cc2)c(=O)c1=O)Nc1ccc(F)cc1 | -9% | 0.2 | -3 | -4 | -6 | -2 | 1
COC(=O)c1cccc(NC(=O)c2ccc(S(=O)(=O)N3CCN(C)CC3)cc2)c1 | -10% | 0.4 | -3 | -2 | -24 | -4 | 3
CCOc1ccc(C(C(=O)NC2CCCCC2)N(C(=O)c2ccccn2)c2cccnc2)cc1 (stereo unspecified) | -5% | -0.6 | 10 | 5 | -16 | -4 | 4
O=C(CSc1ncnc2ccccc12)NCc1ccc2c(c1)OCO2 | -7% | -0.2 | 10 | 2 | -3 | 0 | -4
COc1ccc(/C=C2/Sc3ccc(C(=O)N4CCc5ccccc5C4)cc3NC2=O)cc1 | -15% | 0.9 | -6 | -3 | -12 | 0 | 6
CC(=O)Nc1cccc(-c2nc3ccccc3[nH]2)c1 | -4% | -1.8 | -1 | 3 | -4 | -8 | 3
COc1ccc(C(=O)C(CN2CCOCC2)c2ccccc2)cc1 (stereo unspecified) | -20% | -0.3 | 13 | -4 | -16 | -8 | 0
Cc1cccc(-c2nnc(SCC(=O)O)n2Cc2ccccc2)c1 | -10% | -0.6 | 6 | 4 | -12 | -3 | 3
CC(CC(=O)c1cccs1)CC(=O)c1cccs1 | -11% | 0.5 | 0 | -9 | -1 | -1 | 4
Cc1c(C(=O)Nc2ccc(F)cc2)sc2ncn(CC(=O)N3CCCCC3)c(=O)c12 | -10% | 0.6 | 4 | -6 | 23 | -4 | 3
O=C(c1ccccc1)c1cc(-c2ccccc2)on1 | -5% | 0.6 | -3 | 1 | 3 | 2 | 1
CCc1nc(SCc2ccc(C(=O)OC)o2)c2c(=O)n(C)c(=O)n(C)c2n1 | -18% | -0.4 | -1 | -4 | 29 | 0 | 1
CCOc1ccc(-c2csc(NC(=O)c3cccc(N4C(=O)CCC4=O)c3)n2)cc1 | 0% | -1.4 | 7 | 1 | -7 | -6 | 2
Cc1ccc(CNC(=O)Cn2ccn(-c3ccc(F)c(F)c3)c(=O)c2=O)cc1 | -8% | 0.8 | 1 | -4 | 17 | -2 | 3
O=C(N/N=C/c1ccncc1)c1ccc(NS(=O)(=O)c2cccs2)cc1 | -16% | 0.3 | 3 | 3 | -17 | -6 | 4
Cc1cc2ccccc2n1-c1ccc(C(=O)N2CCCCC2)s1 | -22% | -0.1 | -7 | -5 | 4 | 1 | 5
Cc1ccc(OCC(=O)Nc2nc(-c3ccc(Br)cc3)ns2)cc1C | -8% | 1.0 | -9 | -8 | -28 | 0 | 14
Cn1c(SCCOc2cccc(Cl)c2)nnc1-c1ccncc1 | -14% | -0.8 | 12 | x | -18 | 1 | 2
CC(C)c1nc2sc3c(=O)[nH]c(=S)[nH]c3c2c2c1CCCC2 | 2% | -0.1 | -8 | 8 | -9 | -5 | 0
Clc1cccc(CSc2nncn3c2cc2sccc23)c1 | -15% | 0.5 | -2 | 2 | 5 | -3 | 3
CCc1ccc(-n2c(SCC(=O)Nc3cc(C)[nH]n3)nc3[nH]ncc3c2=O)cc1 | u | -0.5 | 0 | -14 | 3 | -6 | 2
Cc1c(C(=O)Nc2ccccc2F)sc2ncn(CC(=O)N3CCCCC3)c(=O)c12 | -7% | -0.9 | 1 | -2 | -23 | -8 | 10
COCCn1c(=NC(=O)CSC(C)=O)sc2cc(OC)ccc21 | 5% | 0.4 | -7 | 5 | 35 | -5 | 0
SMILES | Apoferritin bind | TRHR agonist | TRHR enhancer | D2 PAM | D1 antagonist | D1 PAM | D1 ag
CCOC(=O)NC1(NC2CCCCC2)Oc2ccccc2O1 | u | 0.1 | 20 | 11 | 22 | 0 | 1
CN1CCN(C(=O)c2cc3c(=O)n4ccccc4nc3s2)CC1 | 348%[activator] | 0.1 | -2 | x | 5 | -3 | 3
NC(=O)c1cc(NC(=O)c2ccc(NS(=O)(=O)c3cccs3)cc2)cc(C(N)=O)c1 | 6% | 0.4 | -6 | x | -25 | -4 | 2
N#Cc1c(SC(C(=O)O)c2ccccc2)nc2c(c1-c1cccs1)CCCC2 (stereo unspecified) | -5% | -1.0 | 1 | -1 | -23 | -4 | 3
O=C(O)c1ccc(S(=O)(=O)N2CCSCC2)cc1 | -2% | 0.2 | 51* | -1 | 27 | 3 | 5
CCOc1ccc(NC(=O)CSc2nc3ccccc3c(=O)n2CCC(=O)NC2CCCCC2)cc1 | 6% | 0.2 | 0 | 12 | 26 | -2 | 2
C=CCN(CC=C)C(=O)Nc1ccc2nc(C)sc2c1 | 2% | 0.4 | 1 | 3 | -27 | -3 | 0
CC(=O)c1sc(NC(=O)c2ccc(Cl)cc2)nc1C | -7% | 4.2 | 2 | -3 | -15 | 1 | 3
COc1ccc(-c2cc(-c3n[nH]c(=S)n3-c3ccccc3OC)[nH]n2)cc1 | -11% | 0.6 | 4 | 8 | 17 | -6 | 1
COc1ccc(C2C(C(=O)OCC3CCCO3)=C(C)NC3=C2C(=O)CC(c2ccco2)C3)cc1O (stereo unspecified) | -22% | 0.2 | -21 | 8 | 21 | -3 | 1
COc1ccc(C(C#N)Nc2ccc(C)cc2)cc1 (stereo unspecified) | -10% | 0.9 | 14 | 2 | 1 | -2 | 1
C=CCn1c(CCNC(=O)c2ccccc2F)nnc1SCC(=O)Nc1nc(C)cs1 | -8% | -0.1 | -6 | x | 3 | -6 | -1
Cc1ccc(NC(=O)c2cc3c(=O)n(Cc4cccnc4)ccc3nc2C)cc1F | -5% | 0.0 | 6 | -9 | -13 | -2 | 0
Cc1ccc(C(=O)Nc2nnc(S(=O)(=O)N(C)Cc3ccco3)s2)cc1 | -1% | 0.2 | 0 | -11 | -7 | -2 | 8
CCOC(=O)CSc1nc(-c2ccc(F)cc2)cc(C(F)(F)F)c1C#N | 61%[activator] | 2.8 | 6 | 5 | -19 | -9 | 9
COc1ccc2c(c1)c1nc3n(c(=O)c1n2CC(=O)Nc1ccccc1)CCCS3 | 6% | -0.5 | -7 | 8 | -5 | 4 | 2
COC(=O)C1C(O)=C(C=Nc2ccc3ccccc3c2)C(=O)CC1(C)C (stereo unspecified) | u | -0.2 | 2 | 5 | 30 | 3 | 1
CN(CC(=O)Nc1cccc(F)c1)C(=O)c1cccnc1Sc1ccccc1Cl | x | -0.1 | -5 | -7 | -18 | -3 | 4

Only part of the results is shown; count on the stated rates, not on these rows.
